Screens from PubChem.
Polio RdRp inh = poliovirus RNA polymerase inhibition; poliovirus polymerase elongation, fluorescence polarization; active compounds read low; % elongation, % (compound at 16.7 µg/mL); hit rate 0.66% among 150,000; AID 588519; in the data active = % elongation below about 90%; also: some results filed as inactive read as strong as hits
Target sequence (P03300 1749-2209 limits assumed): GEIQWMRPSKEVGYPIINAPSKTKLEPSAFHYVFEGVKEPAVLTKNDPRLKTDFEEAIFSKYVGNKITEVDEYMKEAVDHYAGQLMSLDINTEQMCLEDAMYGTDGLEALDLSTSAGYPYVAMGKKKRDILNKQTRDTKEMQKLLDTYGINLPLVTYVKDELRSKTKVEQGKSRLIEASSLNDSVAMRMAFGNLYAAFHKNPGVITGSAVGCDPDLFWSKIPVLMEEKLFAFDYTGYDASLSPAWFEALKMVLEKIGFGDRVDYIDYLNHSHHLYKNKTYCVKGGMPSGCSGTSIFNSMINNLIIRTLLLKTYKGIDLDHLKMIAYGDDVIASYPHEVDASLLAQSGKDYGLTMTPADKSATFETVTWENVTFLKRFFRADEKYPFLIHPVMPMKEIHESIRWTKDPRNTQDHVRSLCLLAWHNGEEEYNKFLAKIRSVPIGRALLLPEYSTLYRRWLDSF
MenB inh = Mtb MenB enzyme inhibition; hit rate 0.43% among 100,000; AID 540299; inhibition, %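 (about 12 µg/mL by stock and volumes)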; P9WNP5; MenB enzyme assay, absorbance read-out; some hits fall short of the stated cut;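 active = mean of two replicates above 30%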;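 also: 0% = no compound and 100% = wells with inactive enzyme; the first replicate is given; strong numbers were not always called active; inactives centre near -10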
Mtb MbtI inh = inhibitors of Mycobacterium tuberculosis siderophore enzyme MbtI; P9WFX0; purified MbtI enzyme, fluorescence intensity read-out; inhibition, %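 (about 17 µg/mL by stock and volumes)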; hit rate 0.89% among 100,000; AID 493033;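 active = above 50% in both replicates, above 80% if mildly self-fluorescent; inactive = the rest, strongly fluorescent compounds included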;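 also: 0% = mean of negative and 100% = mean of positive controls; one replicate is shown; some compounds called inactive have numbers as strong as hits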
Target sequence (P9WFX0 whole entry, looked up): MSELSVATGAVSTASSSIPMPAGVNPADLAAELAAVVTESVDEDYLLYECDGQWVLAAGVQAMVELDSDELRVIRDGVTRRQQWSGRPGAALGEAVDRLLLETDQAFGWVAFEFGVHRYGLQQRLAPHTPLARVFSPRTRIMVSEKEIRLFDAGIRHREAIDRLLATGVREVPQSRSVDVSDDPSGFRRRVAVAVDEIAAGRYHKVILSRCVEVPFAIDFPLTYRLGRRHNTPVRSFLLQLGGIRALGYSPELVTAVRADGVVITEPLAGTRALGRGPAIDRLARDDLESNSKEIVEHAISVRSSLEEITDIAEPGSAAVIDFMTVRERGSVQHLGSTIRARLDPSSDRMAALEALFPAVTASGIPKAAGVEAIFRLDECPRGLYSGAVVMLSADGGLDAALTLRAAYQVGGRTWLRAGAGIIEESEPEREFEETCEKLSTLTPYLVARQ
Polio RdRp inh intensity = recorded beside Polio RdRp inh, whose call it bears; % elongation; measured here: total intensity read-out; formula for this scale not given here;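 total fluorescence in place of polarization; lower means less elongation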
The depositor's hits bear a star; . = no result given; & = joins results of further samples.

item	Structure	Polio RdRp inh	MenB inh	Mtb MbtI inh	Polio RdRp inh intensity
1	c1cc2c(cc1-c1ccc(SCCN3CCCCC3)nn1)OCO2	101	-6	11	104
2	CSc1cccc(NC(=O)C(C)NS(=O)(=O)c2ccccc2)c1 (stereo unspecified)	101	-13	0	104
3	CCCCCCCCCCCCCCCCOC[C@H](COP(=O)([O-])OCC[N+](C)(C)C)OC(=O)NC	98&100	4	6	100&98
4	CCOc1ccc(CCNC(=O)c2cc3c(C)nccc3[nH]c2=O)cc1OCC	100	8	18	97
5	FC(F)(F)c1ccccc1NNC(=S)NCCN1CCOCC1	98	-25	71*	107
6	c1cn2cc(CSC3CCCC3)nc2s1	99	.	-9	102
7	NNC(=O)c1ccc(Oc2ccc(C(=O)NN)cc2)cc1	97	1	-2	100
8	CN(C)C(=O)COC(=O)c1ccc(S(=O)(=O)N2CCCC2)cc1	108	12	-8	109
9	CCc1nnc(SCC(=O)N2c3ccc(F)cc3CCC2C)n1C (stereo unspecified)	101	15	-1	104
10	COc1ccc(N2CCN(C(CNC(=O)c3cccc(Cl)c3)c3ccc4c(c3)OCO4)CC2)cc1 (stereo unspecified)	100	-43	-8	106
11	CSCCC(C(=O)O)n1c(-c2ccc3ccccc3n2)n[nH]c1=S (stereo unspecified)	101	1	47	101
12	CCN1CCCC1CNC(=O)Cn1nc(C)n2cccc2c1=O (stereo unspecified)	102	6	-20	102
13	COC(=O)CC(C(=O)Nc1cc(C(=O)OC)cc(C(=O)OC)c1)N1CCN(C)CC1 (stereo unspecified)	100	-4	0	100
14	CCCNC(=O)C1CCN(c2nnc(-n3c(C)ccc3C)s2)CC1	103	-24	8	103
15	C=CCn1c(SCc2nc3ccccc3c(=O)n2CC#N)nc2ccc(Cl)cc2c1=O	105	-17	1	114
16	O=S(=O)(NCc1ccc2c(c1)CCO2)c1ccc(F)c(F)c1	105	-14	-8	114
17	CC1CCCC(NC(=O)COC(=O)COc2ccccc2)C1C (stereo unspecified)	103	.	-8	103
18	Cc1cc(-c2cc(C)[nH]n2)n[nH]1	106	-20	.	107
19	COc1ccc(-c2nn(-c3ccccc3)cc2CC#N)cc1OC	100	.	18	101
20	COC(=O)c1ccc(CS(=O)(=O)c2ccccc2OC)o1	102	2	20	101
21	COc1ccc(-c2cc3nc(C)c(CCC(=O)NCc4ccc5c(c4)OCO5)c(C)n3n2)c(OC)c1	99	-11	15	103
22	CN1C=C/C(=C\c2cc[n+](C)c3ccccc23)c2ccccc21	100	14	34	95
23	Nc1ccc2c(c1)Nc1ccccc1CC2	98	-17	-131	104
24	NC(=O)Cn1c(=O)n(-c2ccccc2)c(=O)c2oc3ccccc3c21	102	-33	1	107
25	Cc1nnc(SC(C)C(=O)NCc2ccco2)n1C1CCCCC1 (stereo unspecified)	106	0	12	105
26	CSc1sc(C)cc1C(N)=O	102	4	.	96
27	CN(CC(=O)NC1CC1)S(=O)(=O)c1ccccc1	100	-35	-6	103
28	O=S(=O)(c1ccccc1)N1CCCc2ccccc21	101	29	1	100
29	Cc1ccc2c(c1)N(S(=O)(=O)c1c(C)[nH]c(=O)[nH]c1=O)CCO2	103	-2	-16	103
30	CCCC(=O)n1nc(CCC)c2c1CC(C)(C)CC2=O	101	.	-9	103

Structures listed so far that have a cyano group, in the order listed:
item	Structure	Polio RdRp inh	MenB inh	Mtb MbtI inh	Polio RdRp inh intensity
15	C=CCn1c(SCc2nc3ccccc3c(=O)n2CC#N)nc2ccc(Cl)cc2c1=O	105	-17	1	114
19	COc1ccc(-c2nn(-c3ccccc3)cc2CC#N)cc1OC	100	.	18	101

Results in MenB inh, Polio RdRp inh intensity and Mtb MbtI inh, for some of the entries so far:
| entry | compound | MenB inh | Polio RdRp inh intensity | Mtb MbtI inh |
| --- | --- | --- | --- | --- |
| 2 | CSc1cccc(NC(=O)C(C)NS(=O)(=O)c2ccccc2)c1 (stereo unspecified) | -13 | 104 | 0 |
| 3 | CCCCCCCCCCCCCCCCOC[C@H](COP(=O)([O-])OCC[N+](C)(C)C)OC(=O)NC | 4 | 100&98 | 6 |
| 4 | CCOc1ccc(CCNC(=O)c2cc3c(C)nccc3[nH]c2=O)cc1OCC | 8 | 97 | 18 |
| 5 | FC(F)(F)c1ccccc1NNC(=S)NCCN1CCOCC1 | -25 | 107 | 71* |
| 6 | c1cn2cc(CSC3CCCC3)nc2s1 | . | 102 | -9 |

(further entries)
item	Structure	Polio RdRp inh	MenB inh	Mtb MbtI inh	Polio RdRp inh intensity
31	O=C(NCC(=O)N1CCCC1)c1ccc(Br)o1	99	-7	-3	102
32	CC(NC(=O)c1ccc(CO)cc1)C(=O)O (stereo unspecified)	100	-3	-6	107
33	Cc1cc(C)nc(SCc2cnc(C)nc2N)n1	100	-25	11	90
34	COC(=O)NCC(c1ccco1)N1CCN(c2ccccc2)CC1 (stereo unspecified)	99	6	-2	103
35	CC(c1ccccc1)n1c(NC(=O)c2ccco2)c(S(=O)(=O)c2ccccc2)c2nc3ccccc3nc21 (stereo unspecified)	102	-17	-56	107
36	Nc1ccc2nn(-c3ccccc3)nc2c1	101	-24	.	105
37	CCCCC(=O)Nc1nnc(-c2ccc(Cl)s2)o1	103	3	-23	103
38	O=C(CN1C(=O)S/C(=C\c2ccc(N3CCOCC3)o2)C1=O)Nc1ccccc1F	80	-71	15	177
39	COc1ccc(C=Nc2ccccc2C(=O)O)cc1	106	-13	.	106
40	O=C(NCCS(=O)(=O)N1CCCCC1)c1ccccc1	.	-9	14	.
41	O=C(O)C1CC=CCC1C(=O)Nc1ccccc1S (stereo unspecified)	102	-8	-3	106
42	CSc1nc2cccc(F)c2c(=O)n1-c1ccc(C)c(C)c1	95	4	-13	91
43	Cc1ccc(NC(=O)CSc2nc3c(c(=O)n2-c2ccccc2)SCC3)cc1	100	-25	0	101
44	Cc1ccc(S(=O)(=O)c2ccc(-c3ccccc3)cc2)cc1	105	8	1	97
45	O=C(/C=C/c1cccs1)NC(=S)N1CCCC1	99	-24	24	107
46	N#C/C(=C/Nc1cccc2ccccc12)c1nc2ccccc2o1	101	-65	-7	104
47	CC1CCCN(CCCNS(=O)(=O)c2cc(Br)cc3c2N(C(=O)C2CC2)CC3)C1 (stereo unspecified)	101	0	-8	103
48	C=CCN1C(=O)/C(=C\c2cc3c4c(c2)CCCN4CCC3)C(=O)NC1=S	98	-2	-2	105
49	CCN1C(=O)c2cccc3c(S(=O)(=O)Nc4nc(C)cs4)ccc1c23	100	-29	14	102
50	CCOc1ccccc1C(=O)NC1CCS(=O)(=O)C1 (stereo unspecified)	.	10	4	.
51	COc1ccc(CNC(=O)c2ccc3c(c2)C(=O)N(Cc2ccco2)C3=O)cc1	100	-7	4	106
52	COc1cc(/C=C2\SC(N(C)c3ccc(O)cc3)=NC2=O)ccc1OCC(=O)O	104	-76	6	97
53	Cc1cccc(CSc2nc3nc[nH]c3c(=O)[nH]2)c1	101	-16	13	101
54	N#CC(C(=O)NCc1cccs1)c1ccccc1 (stereo unspecified)	106	-3	.	105
55	Nc1n[nH]c(-c2ccc(Cl)cc2)c1Cl	101	5	0	100
56	Cc1c(NC(=S)NC(C)(C)C)c(=O)n(-c2ccccc2)n1C	101	-4	-2	103
57	NS(=O)(=O)c1ccc2[nH]c(=S)[nH]c2c1	100	-9	62	97
58	CC1CC(=O)Nc2ccccc2N1C(=O)COC(=O)c1cn(C)c2ccccc12 (stereo unspecified)	100	-29	2	97
59	COc1ccc(N2CCN(C(=O)CSc3nccn3C)CC2)cc1	100	4	16	95
60	O=C(Nc1cccc(F)c1)/C(=C\c1cccs1)NC(=O)c1cccs1	102	-46	-3	103

(continued)
item	Structure	Polio RdRp inh	MenB inh	Mtb MbtI inh	Polio RdRp inh intensity
61	Cn1cccc1/C=N/NC(=O)c1cccc(S(=O)(=O)NCc2ccccc2)c1	102	-40	-8	107
62	CC(C)C(NS(=O)(=O)c1cccs1)C(=O)NCc1cccnc1 (stereo unspecified)	101	-13	14	101
63	CN1N=C(c2coc3ccccc23)CC1(O)C(F)(F)F (stereo unspecified)	104	8	-199	101
64	Cc1ccc(N2CCN(/N=C3/C(=O)Nc4c(Cl)cc(Cl)cc43)CC2)cc1	98	-24	-10	103
65	COc1nc(NC(=O)NS(=O)(=O)Nc2cccc3cccnc23)nc(OC)n1	79*	7	2	79*
66	Cc1cccc(NC2=NCC(=O)N2Cc2ccccc2)c1	87*	-16	-9	79*
67	CCOC(=O)/C(N=O)=C(/O)c1ccccc1	99	-52	-4	101
68	CC(=O)NS(=O)(=O)c1ccc(NC(=O)COc2ccc(Cl)cc2C)cc1	106	-22	.	111
69	COc1cc(OC)nc(NC(=O)CS(=O)(=O)c2ccccc2)n1	101	0	4	103
70	CC(C(=O)N1CCCCCC1)n1sc2ccccc2c1=O (stereo unspecified)	105	-10	-3	105
71	CCCCNC(=O)c1ccc(CS(=O)Cc2ccc(C)cc2)o1 (stereo unspecified)	104	-4	-7	101
72	CCOc1ccc(S(=O)(=O)n2cnc3ccccc32)cc1	101	-9	3	98
73	O=C(Cc1ccccc1)n1cnc2ccccc21	102	-25	-6	95
74	O=C(NC1CC1)c1cc(=S)[nH]c2ccccc12	109	-88	69	105
75	CCOc1ccc(C(=O)SC2=NCCS2)cc1	101	-47	1	102
76	O=C(CSC1=NCCN1)C1COc2ccccc2O1 (stereo unspecified)	101	84*	22	102
77	O=C(CCS(=O)(=O)c1ccccc1)Nc1ccccc1N1CCOCC1	108	-4	-55	107
78	CCn1c(=O)cc(OCC(=O)N2CCCCC2C)c2ccccc21 (stereo unspecified)	100	-11	3	102
79	CN(C)C(=O)COC(=O)c1ccc(Oc2ccc(C(=O)OCC(=O)N(C)C)cc2)cc1	104	-2	-9	111
80	COc1ccc(S(=O)(=O)N2c3cccc4cccc(c34)S2(=O)=O)cc1	110	-22	-6	103
81	Cc1cnn2c1nnc1c3ccccc3ccc12	102	-17	-5	121
82	O=C(Nc1ccccc1)C(=S)N1CCOCC1	82*	-36	.	72*
83	C[C@@H](C(=O)Nc1nc2ccccc2s1)N1C(=O)C2CC=CCC2C1=O (stereo partly specified)	103	14	-5	108
84	Nn1c(Cc2cccc3ccccc23)nnc1SC1CCOC1=O (stereo unspecified)	103	-29	14	106
85	COc1cccc(Nc2ncccc2C(=O)Nc2ccc(F)cc2)c1	103	-20	.	110
86	CC(=O)NC(CC(=O)Nc1ccc(N2CCOCC2)cc1N1CCOCC1)c1ccccc1 (stereo unspecified)	99	-9	23	103
87	O=C(COC(=O)C12CC3CC(CC(Cl)(C3)C1)C2)NCc1cccs1	102	.	-12	105
88	O=C(COC(=O)c1cnccn1)c1ccc(C2CCCCC2)cc1	107	-2	.	108
89	CN(C)C(CNC(=O)Nc1ccccc1)c1cccnc1 (stereo unspecified)	101	8	-4	103
90	O=[n+]1c2c(n([O-])c3c1CCCC3)CCCCC2	98	-29	10	102

Reprinted from the results shown for reference:
item	Structure	Polio RdRp inh	MenB inh	Mtb MbtI inh	Polio RdRp inh intensity
61	Cn1cccc1/C=N/NC(=O)c1cccc(S(=O)(=O)NCc2ccccc2)c1	102	-40	-8	107
62	CC(C)C(NS(=O)(=O)c1cccs1)C(=O)NCc1cccnc1 (stereo unspecified)	101	-13	14	101
63	CN1N=C(c2coc3ccccc23)CC1(O)C(F)(F)F (stereo unspecified)	104	8	-199	101
64	Cc1ccc(N2CCN(/N=C3/C(=O)Nc4c(Cl)cc(Cl)cc43)CC2)cc1	98	-24	-10	103

Next part.
item	Structure	Polio RdRp inh	MenB inh	Mtb MbtI inh	Polio RdRp inh intensity
91	CC1=C(C#N)C(=O)N(CCO)C(=O)/C1=C\c1ccc(-c2ccccc2)o1	102	-17	88	102
92	O=C(NN1CCOCC1)c1ccc(C(=O)c2ccccc2)cc1	104	-13	-9	107
93	CCOC(=O)C1CCCN(S(=O)(=O)c2ccc3c4c(cccc24)C(=O)N3CC)C1 (stereo unspecified)	99	-41	-16	110
94	Clc1nnc(-c2ccccc2)c(-c2ccccc2)n1	101	-41	11	100
95	CN(CCC(N)=O)Cc1ccccc1	101	38*	-2	104
96	N#Cc1c(OCC(F)(F)F)ccc(Sc2ncccn2)c1OCC(F)(F)F	104	0	-6	130
97	O=C(NCC(=O)N1CCc2ccccc2C1)c1ccc2c(c1)OCO2	101	-1	10	103
98	CCN(Cc1ccccc1)C(=O)C1C(=O)CC(C)(C)C(C(=O)OC)C1=O (stereo unspecified)	102	-9	-8	101
99	O=C(Cn1c2ccccc2n2ncnc12)c1ccc(-c2ccccc2)cc1	101	6	-2	101
100	Cn1nnc(NCc2cc(Br)ccc2OCc2ccccc2F)n1	98	-5	2	103
101	Cn1nnc2cc(C(=O)NC3CC3)ccc21	108	-6	.	104
